VDR inh: blocks the human vitamin D receptor. VDR-SRC2-3 peptide fluorescence polarization, 2 h. 400,000 compounds, 0.93% hits. Potency, µM, for inactives: max response, negative = inhibition, usual class: inhibitors. P11473; active means well fitted inhibition curve with a large enough effect; further: series mostly up to about 120 µM
Target sequence (P11473 whole entry, looked up): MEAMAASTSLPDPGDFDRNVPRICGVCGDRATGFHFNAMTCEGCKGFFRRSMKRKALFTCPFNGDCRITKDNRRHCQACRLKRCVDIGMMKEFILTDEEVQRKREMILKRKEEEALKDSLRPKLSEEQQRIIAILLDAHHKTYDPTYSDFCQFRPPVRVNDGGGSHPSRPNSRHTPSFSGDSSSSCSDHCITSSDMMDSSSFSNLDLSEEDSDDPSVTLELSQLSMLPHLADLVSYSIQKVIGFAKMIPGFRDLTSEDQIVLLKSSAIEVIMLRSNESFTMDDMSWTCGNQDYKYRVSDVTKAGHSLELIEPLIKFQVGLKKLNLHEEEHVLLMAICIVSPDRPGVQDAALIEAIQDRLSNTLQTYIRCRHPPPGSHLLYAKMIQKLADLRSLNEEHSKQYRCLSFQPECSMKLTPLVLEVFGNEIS
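Compounds are added to VDR with labelled SRC2-3 coactivator peptide and held 2 h at room temperature. Inhibition of the VDR–peptide interaction is then read as a change in fluorescence polarization.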
The depositor's hits bear a star; & = joins results of further samples. On the % scale 0 is the no-effect control and ±100 the full control effect; potency means the concentration at half of the fitted maximal effect. Only part of the results is shown; the hit share may differ from the screen's.

VDR inh,mol
-15%,CCn1c(SCC(=O)Nc2cccc(OC)c2)nc2ccccc2c1=O
-7%,COC(=O)c1ccc(Cn2c(O)c(N=O)c3ccccc32)o1
-18%,O=C(NCCc1ccccc1)c1ccccc1SCC(=O)N1CCCC1
1%,O=C(CSc1ccccc1F)NNC(=O)c1cncc(Br)c1
-10%,Clc1ccccc1Cn1nnc(-c2ccccc2)n1
-13%,COc1ccc(C(C(=O)NC2CCCCC2)N(CC2CCCO2)C(=O)C2COc3ccccc3O2)cc1OC (stereo not drawn)
0%,O=C(CN1CCN(S(=O)(=O)c2ccc(Br)cc2)CC1)N/N=C/c1ccc(Cl)c([N+](=O)[O-])c1
-10%,Cc1ccc(S(=O)(=O)NNC(=O)Nc2cccc3ccccc23)cc1
6%,COc1ccc(-n2c(=O)n(Cc3ccccc3)c(=O)c3[nH]cnc32)cc1
-14%,COc1ccc(COCC(O)CN2CCC(CN3C(=O)c4cccc5cccc(c45)C3=O)CC2)cc1OC (stereo not drawn)
-8%,CCC1Oc2ccccc2N(CC(=O)NCCCN2CCN(CC)CC2)C1=O (stereo not drawn)
-10%,COCCCNC(=O)CC(c1cc(OC)c(OC)c(OC)c1)N1Cc2ccccc2C1=O (stereo not drawn)
-21%,Cc1nc2ccc(S(=O)(=O)NC(C(=O)NCc3ccco3)C(C)C)cc2s1 (stereo not drawn)
-8%,CC(C)CCNC(=O)c1c[nH]c2ccc(S(=O)(=O)N3CCC4(CC3)OCCO4)cc2c1=O
6%,Cc1nn(-c2ccccc2C(=O)O)c(=O)c2ccccc12
-7%,NC(=O)c1ccc(Oc2ccc(Cl)c3ccccc23)c([N+](=O)[O-])c1
6%,COc1ccc(CCNC(=O)c2cc(-c3ccc(C)cc3O)n[nH]2)cc1OC
-14%,Cc1ccc(F)cc1NC(=O)N1CCCN(c2ccc(C(F)(F)F)cn2)CC1
-1%,COc1ccc2c(c1)C(=O)[C@@H](OC(=O)Nc1cc(OC)c(OC)c(OC)c1)[C@H](c1ccc(OC)c(Br)c1)O2
-5%,COc1cccc2cc(-c3nnc(SCC(=O)Nc4nc(C)cs4)n3C)oc12
-19%,Cc1cc(C)cc(C(=O)OCC(=O)Nc2cccc(S(=O)(=O)NC3=NCCCCC3)c2)c1
0%&-3%,O=C(NCc1cccc(F)c1)C1CCN(C(=O)c2sccc2-n2cccc2)CC1
5%,CN(C)C(=O)C1OC(C)(C)OC1C(=O)N(C)C (stereo not drawn)
3%,Cc1cc(NC(=O)COC(=O)c2ccc(S(=O)(=O)N3CCCc4ccccc43)cc2)no1
-20%,Cc1ccccc1-c1nc(C(N)=O)c2c(n1)n(-c1ccc3c(c1)OCO3)c(=O)n2C
-5%,O=C(Nc1ccc(Cl)cc1Cl)Nn1cnnc1
-5%,Cc1cccc(C(=O)Nc2scc(-c3ccc(Br)cc3)c2C(=O)O)c1
-20%,COC(=O)c1sc(S(=O)(=O)N2CCN(c3ccccc3)CC2)c(C(=O)OC)c1C
8%,O=S(=O)(c1ccccc1)N(CC(O)CN1CCCCC1)c1ccccc1 (stereo not drawn)
3%,Cn1c2ccccc2c(=O)c2c(=O)n(C3CCCCC3)c(-c3cccs3)nc21
-2%,O=C(O)C(c1ccccc1)N1CCCC1 (stereo not drawn)
1%,Clc1ccc2oc(-c3cccnc3NCc3ccccc3)nc2c1
3%,CC1CCN(CCNC(=O)CCS(=O)(=O)c2ccc(Br)cc2)CC1
5µM*,CCOC(=O)C1=C(C)OC2(O)c3ccccc3C(=O)C12O (stereo not drawn)
-1%,CCCCC/C=C\C/C=C\C/C=C\CCCCCCC(=O)NCCCC(=O)O
-6%,Cc1sc2ncnc(OCC(=O)N3CC(=O)Nc4ccccc43)c2c1C
-6%,C=CCNc1nc(Cl)nc(Nc2ccc(OC)cc2)n1
-6%,COc1ccc(N2C(=O)CC(NCCNc3ccc([N+](=O)[O-])cn3)C2=O)cc1 (stereo not drawn)
-17%,CCN(CC)CCNc1nc(-c2ccc(OC)cc2)c(-c2ccc(OC)cc2)s1
6%&15%,O=C(C1CCCN(S(=O)(=O)c2cccc3nonc23)C1)N1CCN(c2cccc(Cl)c2)CC1 (stereo not drawn)
-4%,CSc1ccc(CNC(=O)C2Cc3cc(S(=O)(=O)N4CCCCC4)ccc3N2C(C)=O)cc1 (stereo not drawn)
-2%,O=S(=O)(/N=C(/Nc1ccccn1)c1ccccc1)c1ccc(F)cc1
-19%,CCOC(=O)c1ccc(NS(=O)(=O)c2ccc3[nH]c(=O)[nH]c3c2)cc1
2%,Cc1oc(-c2ccccc2)cc1C(=O)Nc1ccccc1
-6%,CC(OC(=O)Cc1c[nH]c2ccccc12)C(=O)Nc1ccc(S(N)(=O)=O)cc1 (stereo not drawn)
4%,CCCCOC(=O)Nc1nnc(C(C)C)s1
-3%,Cc1ccc(-c2c(CN3CCN(c4cccc(C)c4C)CC3)csc2C)cc1
-1%,O=C(Cn1nnc(-c2ccccc2F)n1)N1CCCCC1
12%,COc1ccc(CCNc2ccncn2)cc1OC
5%,COc1ccc(NC(=O)Cn2c(=O)n(CCCC(=O)NCc3ccccc3OC)c(=O)c3ccccc32)cc1Cl

(continued)
VDR inh,mol
1%,CC(CCC(=O)O)C1CCC2C3C(=O)CC4CC(=O)CC[C@@]4(C)C3CC(=O)[C@]12C (stereo partly drawn)
9%,CCOc1ccc(CC(=O)NCCS(=O)(=O)N2CCN(c3ccc(OC)cc3)CC2)cc1
0%,CCCc1ccc(Oc2coc3cc(OCC(=O)Nc4ccccc4C)ccc3c2=O)cc1
2%,Cc1ccc(-c2nc(CSCC(=O)N3CCN(c4ccccn4)CC3)c(C)o2)cc1
-2%,COc1cccc(C(=O)N2CCN(Cc3nc(CC4CC4)no3)CC2)c1
-1%,C(=C\c1ccco1)/c1ccc2ccccc2n1
1%,CC1Sc2ccc(S(=O)(=O)CCC(=O)NCc3cccs3)cc2NC1=O (stereo not drawn)
0%,CC(OC(=O)c1cccc(S(=O)(=O)Nc2cccc(C(F)(F)F)c2)c1)C(=O)Nc1ccc2c(c1)OCCO2 (stereo not drawn)
1%,CCOC(=O)N1CCN(C(=O)c2ccc(NS(=O)(=O)c3ccc(F)cc3)cc2)CC1
8%,COc1cccc(/C=C/C(=O)OCC(=O)NCCNC(=O)COC(=O)/C=C/c2cccc(OC)c2)c1
-26%,COc1cc2cc(CCOC(=O)CCCC(=O)O)oc(=O)c2cc1OC
-11%,CC(=O)c1cccc(NC(=O)CN2CCc3cc4c(cc3C2)OCCCO4)c1
10%,CC1CCN(S(=O)(=O)c2ccc3ncn(CC(=O)N(C)Cc4ccccc4)c(=O)c3c2)CC1
7%,O=c1c2cc(NC(=S)NCc3cccnc3)ccc2nc2n1CCCCC2
6%,O=C(CNC(=O)c1ccccc1)NCCc1nc2ccccc2[nH]1
5%,CC(=O)c1cc(N2CCC(C(=O)O)CC2)ccc1[N+](=O)[O-]
-6%,Cc1ccc2[nH]c(=O)c(CN(CCCO)Cc3nnnn3Cc3ccco3)cc2c1
7%,Cc1cccc(N=C2NC(=O)CS2)c1
-15%,CCOC(=O)c1c(CN(CC)CC)oc2cc(Br)c(O)cc12
14%,COc1cc(NC(=O)N2CCC(CN3CCCCCC3)CC2)cc(OC)c1OC
5%,Nc1nc2nonc2nc1N1CCCCC1
2%,O=C(CCN1C(=O)c2ccccc2C1=O)C1=NN[C@@H]2C(=O)N(c3ccc4c(c3)OCO4)C(=O)[C@H]12
-6%,COc1ccc(S(=O)(=O)NCC2CCC(C(=O)NCc3ccco3)CC2)cc1 (stereo not drawn)
9%,CCOC(=O)C(C(=O)Nc1nccs1)C1CCCCC1 (stereo not drawn)
6%,Cc1nc(NC(=O)c2ccco2)sc1-c1csc(Nc2ccc(Cl)cc2Cl)n1
0%,CCN(CC)S(=O)(=O)c1cccc(NC(=O)CN(C)Cc2cccc(OC)c2)c1
-21%,COc1cc(C)nc(-c2csc(C)n2)n1
1%,COc1ccc(/C=C/c2noc(-c3ccccc3O)n2)cc1OC
5%,CC(=O)Nc1ccc(S(=O)(=O)N2C3CCCC2CC(NC(=O)C2CCCCC2)C3)cc1 (stereo not drawn)
5%,Nc1c(Br)cc(Br)c(N2CCCC2=O)c1Br
3%,Cc1cc(C)c(NC(=O)c2cccc3c2C(=O)N(C2CCCCC2)C3)c(C)c1
-15%,CCOC(=O)[C@@H]1[C@H]2COc3cc(OC)ccc3[C@@H]2N2C(=O)N(c3ccccc3)C(=O)[C@@]12C
1%,O=C(CSc1nnc(-c2ccncc2)o1)NCc1ccccc1Cl
-26%,Cc1nc2c(cc1NC(=O)c1ccccc1)nc(C)n2Cc1ccccc1
8%,CCCOC(=O)c1ccccc1O
14%,O=C(NC1CCCCC1)C(c1cccs1)N(C(=O)Cc1c[nH]c2ccccc12)c1ccc(F)cc1 (stereo not drawn)
-17%,c1ccc(Oc2nc(-c3cccnc3)nc3ccccc23)cc1
7%,COc1ccc(NC(=O)c2cnn(-c3ccc(C)cc3)c2-n2cccc2)cc1Cl
2%,CCCn1c(SCC(=O)NCc2ccc(Cl)cc2)n[nH]c1=O
0%,CCCCn1c(SCC(=O)NCc2ccc(C)cc2)nc2c(sc3ccccc32)c1=O
15%,Cn1cc(S(=O)(=O)N2CCCCC2)cc1C(=O)Nc1cccc(C#N)c1
-1%,CC(=O)NCCCc1nc2ccccc2n1Cc1ccccc1C
4%,CC(=O)Nc1ccc(Oc2ccccc2)cc1
6%,CCn1c2c(c(=N)c3c1CCC3)CCCC2
12%,COc1ccc(C(=O)COC(=O)[C@@H](NS(=O)(=O)c2ccccc2)C(C)C)cc1
-9%,O=C(CCN1C(=O)C2C3C=CC(C4CC34)C2C1=O)Oc1ccccc1 (stereo not drawn)
3%,O=C(Nc1oc2ccccc2c(=O)c1-c1ccc(Br)cc1)c1ccco1
-26%,COc1cc(CC(NC(C)=O)C(=O)NC2CCN(c3c(Cc4ccccc4)c(C)nc4ncnn34)CC2)cc(OC)c1 (stereo not drawn)
2%,Cc1ccc(NC2CCCN(C(=O)CCC(=O)c3ccccc3)C2)cc1C (stereo not drawn)
-27%,COc1ccc(/C=N/NC(=O)C2c3ccccc3-c3ccccc32)cc1

(more compounds)
VDR inh,mol
-4%,O=C(CCN1CCc2ccccc2C1)Nc1ccc(F)c(F)c1
5%,O=C(NCCC1=CCCCC1)c1ccc2c(c1)ncn2-c1ccc(F)c(F)c1
-4%,CCC1CCCCN1CCCNC(=O)c1ccc2c(=O)n(Cc3ccc(OC)cc3)c(=O)[nH]c2c1 (stereo not drawn)
9%,O=C(NC(=S)NNC(=O)c1ccccc1F)c1cccnc1
5%,O=C(Cc1ccc(NC(=O)C2CCN(C(=O)c3ccccc3)CC2)cc1)Nc1ccc(C(=O)N2CCOCC2)cc1
-8%,COc1ccc(-c2cn3c(C)c(C(=O)N4CCc5ccccc5C4)sc3n2)cc1
-9%,CCOC(=O)C1=C(COC(=O)C(C)(C)Oc2ccc(Cl)cc2)NC(=O)NC1C (stereo not drawn)
-5%,Cc1c(NC(=S)NC(=O)CCc2ccccc2)c(=O)n(-c2ccccc2)n1C
-29%,O=C(Cn1cc(S(=O)(=O)N2CCN(c3ccccc3F)CC2)c2ccccc2c1=O)Nc1cccc(C(F)(F)F)c1
-5%,COc1ccccc1CNC(=O)C1CCCN(S(C)(=O)=O)C1 (stereo not drawn)
6%,CCCS(=O)(=O)c1c(S(=O)(=O)CCC)c2c(N)cccn2c1C(=O)c1ccc(F)cc1
-17%,O=C(COC(=O)c1ccccn1)NCc1ccccc1Cl
-3%,Cc1noc(C)c1S(=O)(=O)N1CCC(C(=O)N2CCN(C(=O)c3ccco3)CC2)CC1
7%,CCN(CC)S(=O)(=O)c1ccc(N2CCN(S(=O)(=O)c3ccc4c(c3)OCCO4)CC2)nc1
-25%,CCN(CC(=O)Nc1ccccc1C(F)(F)F)C(=O)c1cccc(N2C(=O)CCC2=O)c1
11%,COc1ccc2nc(NC(=O)CC3Oc4ccccc4NC3=O)sc2c1 (stereo not drawn)
-10%,O=C(O)CSc1nnc(CNc2ccc(F)cc2)n1-c1ccccc1
3%,O=C1CCC(C(=O)Nc2ccccc2N2CCCC2)=NN1
-6%,c1ccc(CN2OCC3Cn4c(nc5ccccc54)C32)cc1 (stereo not drawn)

Screening results from PubChem.
